# Bioassay records: PubChem BioAssay, several laboratories
# Vif TR-FRET – inhibitors of Vif binding to APOBEC3G peptide, primary screen, biochemical, TR-FRET, GST-Vif 1-94, biotin-A3G peptide, dose response retest (AID 1117319); one-dose inhibition, %; IC50 in µM for titrated hits; Virion infectivity factor (Human immunodeficiency virus type 1 group M subtype B (isolate …; actives 0.57% (n = 260,000); TR-FRET GST-Vif / biotin-A3G peptide binding; higher % means a stronger effect; test concentration not given here; strong numbers were not always called active;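 active = above the screen mean plus three standard deviations and confirmed in dose response; inconclusive = results disagree or hit not tested in dose response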;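 note: Vif residues 1-94 fused to GST binding biotinylated APOBEC3G peptide 110-148; 0% = full assay without inhibitor and 100% = GST in place of GST-Vif; retest series ran down from 100 µM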
# Beta2AR agonist – beta2AR agonists driving receptor internalization, primary screen, cell-based, FAP fluorogen, flow cytometry; AID 504454, 2011; Am2.2-beta2AR cells; reference of the scale not given here; actives 0.43% (n = 340,000); response, % (no concentration beside the values);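 active = response above a set limit, near 3 SD of response in nonfluorescent compounds, cut at about 42% in these data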;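 note: stock transfer was 100 nL into about 11 µL; a reference agonist was the positive control; negative values mostly stem from fluorescent compounds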
# Target sequence (P07550 whole entry, looked up): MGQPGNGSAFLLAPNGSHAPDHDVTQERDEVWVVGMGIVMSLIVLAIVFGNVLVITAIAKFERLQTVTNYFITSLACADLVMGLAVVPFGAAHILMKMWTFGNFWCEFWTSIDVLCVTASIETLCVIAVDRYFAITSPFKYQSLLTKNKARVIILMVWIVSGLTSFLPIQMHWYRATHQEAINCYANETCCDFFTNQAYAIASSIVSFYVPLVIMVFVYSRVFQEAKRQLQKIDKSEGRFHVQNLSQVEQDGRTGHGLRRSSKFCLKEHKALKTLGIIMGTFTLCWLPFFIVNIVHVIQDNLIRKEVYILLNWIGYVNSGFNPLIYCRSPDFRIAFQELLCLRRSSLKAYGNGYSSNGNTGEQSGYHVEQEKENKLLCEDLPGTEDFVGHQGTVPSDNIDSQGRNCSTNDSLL
# LANA-H2B inh – blockers of LANA interaction with H2A/H2B – biochemical, FP readout, HTS, primary screen. Protein LANA1 (Human herpesvirus 8 type P (isolate GK18)), Q9QR71. cell-free LANA-H2A/H2B peptide, fluorescence polarization. inhibition, % (concentration not given with the values). actives 0.6% (n = 320,000); in the data active = inhibition mostly above about 10%, no sharp cut-off; inactive = mostly below about 6.7%;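 note: stock transfer was 7.5 nL into about 10 µL; 0% = median of vehicle wells and 100% = median of positive control wells; one replicate is shown; the record names a cut of 25% in any replicate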
# HNF4A DNA FP – change in binding of human HNF4A to DNA, primary screen, biochemical, fluorescence polarization, FITC-DNA. Hepatocyte nuclear factor 4-alpha (Homo sapiens), P41235. 1 h. activity change, % at 10 µM. actives 0.3% (n = 360,000). AID 1224865, 2016; in the data active = activity change above about 30%, passing the limit was not always enough;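 note: controls were the assay level and a saturating level of protein; the project sought stronger binding though the title names inhibitors; some compounds called inactive have numbers as strong as hits; positive values seem to mean higher polarization but the record does not say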
# Target sequence (P41235 whole entry, looked up): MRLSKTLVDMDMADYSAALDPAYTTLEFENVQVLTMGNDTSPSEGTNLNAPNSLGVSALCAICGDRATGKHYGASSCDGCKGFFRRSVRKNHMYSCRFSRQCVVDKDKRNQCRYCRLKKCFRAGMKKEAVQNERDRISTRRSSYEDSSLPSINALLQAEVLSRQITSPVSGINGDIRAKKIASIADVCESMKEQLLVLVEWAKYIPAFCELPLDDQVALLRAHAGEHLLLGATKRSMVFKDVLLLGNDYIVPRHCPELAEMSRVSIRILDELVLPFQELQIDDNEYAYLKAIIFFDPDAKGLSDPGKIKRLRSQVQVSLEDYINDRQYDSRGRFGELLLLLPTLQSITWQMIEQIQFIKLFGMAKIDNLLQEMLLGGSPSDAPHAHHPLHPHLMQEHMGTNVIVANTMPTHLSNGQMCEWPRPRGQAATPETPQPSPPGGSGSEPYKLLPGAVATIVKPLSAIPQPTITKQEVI
# ALR inh – inhibitors of human ALR sulfhydryl oxidase, primary screen, biochemical, H2O2 detection, HRP-luminol luminescence, single point | actives 3.8% (n = 290,000) | AID 485317, 2010 | FAD-linked sulfhydryl oxidase ALR (Homo sapiens), P55789 | purified ALR, DTT oxidation | inhibition, % (test concentration not listed);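 active = mean and each replicate at 75% or more; inconclusive = only one of the two met; inactive = neither met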;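 note: stock transfer was 7.5 nL into about 7.5 µL; 0% = neutral wells and 100% = wells with inactivated enzyme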
# Target sequence (P55789 whole entry, looked up): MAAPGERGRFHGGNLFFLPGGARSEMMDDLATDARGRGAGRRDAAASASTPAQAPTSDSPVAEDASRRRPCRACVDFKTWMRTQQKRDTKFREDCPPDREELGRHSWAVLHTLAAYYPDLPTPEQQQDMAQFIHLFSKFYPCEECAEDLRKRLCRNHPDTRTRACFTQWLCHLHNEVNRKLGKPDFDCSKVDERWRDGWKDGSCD
# RanGTP-Imp inh – inhibitors of RanGTP-importin-beta interaction, primary screen, biochemical, FRET, CFP-Ran, YFP-importin-beta, homogeneous | Ran GTPase (GTP-bound) - importin-beta complex | cell-free CFP-Ran/YFP-importin-beta FRET ratio | inhibition, % (no concentration beside the values) | actives 1.1% (n = 300,000) | AID 2216, 2009;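 active = most replicates above 15%; inconclusive = exactly half above 15%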;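 note: 0% = DMSO wells and 100% = Ran loaded with GDP instead of GTP; wells of about 40 µL received 100 nL stock; the first replicate is given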
# Calb FLC – C. albicans growth inhibition with fluconazole, primary screen, CaCi-2 strain, Alamar Blue fluorescence; C. albicans CaCi-2 (fluconazole-resistant clinical isolate) + fluconazole, 48 h; growth inhibition, % (test concentration not listed); AID 1979, 2009; actives 0.57% (n = 300,000);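 active = most replicates above 75%; inconclusive = exactly half above 75%; inactive = most below 75%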;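 note: all wells also contain fluconazole at 8 µg/ml as a sub-toxic cotreatment; 0% = median of DMSO wells and 100% = median of geldanamycin control wells; wells of about 8 µL received 7.5 nL stock; the first replicate is given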
# * marks the source's active call; other numbers are inactive results; u = inconclusive; x = not tested or not shown.
SMILES,Vif TR-FRET,Beta2AR agonist,LANA-H2B inh,HNF4A DNA FP,ALR inh,RanGTP-Imp inh,Calb FLC
O=C(CN(CCc1ccccc1)S(=O)(=O)c1ccc(Br)cc1)N/N=C/c1ccc2c(c1)OCO2,32%,-12,2.8,2.3,-3,0.6,6
Cc1ccc(NC(=O)CSc2nc3ccccc3c(=O)n2CC2CCCO2)cc1 (centres undefined),x,-10,-2.2,0.9,2,-2.0,0
Cc1cc(N/N=C/c2cccc([N+](=O)[O-])c2)nc(-n2nc(C)cc2C)n1,x,2,-0.9,2.5,-13,-1.9,-12
Cc1nn(-c2ccccc2)c(C)c1C(=O)N1CCN(S(=O)(=O)c2ccccc2)CC1,1%,0,1.5,1.0,-3,x,x
COc1ccc(C2CC(c3ccc(C)cc3)Nc3nc(N)nn32)cc1 (centres undefined),11%,-5,-6.8,1.1,3,-0.9,18
C(=N\N(c1ccccc1)c1ccccc1)/c1ccc(N2CCOCC2)s1,x,9,0.0,13,x,-5.0,-3
CSc1ccc(/C=C/c2cc(=O)c3ccccc3[nH]2)cc1,-3%,-3,0.6,-4.1,-8,-1.5,-5
COc1cc(/C=N/N=C(\N)c2nonc2N)cc(OC)c1OC,-2%,-1,-5.3,-3.6,0,-0.6,2
O=C(Nc1cc(S(=O)(=O)N2CCOCC2)ccc1N1CCCC1)c1cc(=O)[nH]c2ccccc12,u,6,1.7,3.5,-7,1.1,-3
Cc1csc(SCC(=O)Nc2oc(C)c3c(C)n[nH]c(=O)c23)n1,0%,-4,-4.8,-0.6,25,1.3,-2
Cc1ccc(/C=N/NC(=O)CCSc2ccccc2)cc1,x,-2,1.2,3.4,-18,-1.2,-49
CCCc1c(C(=O)N/N=C(\C)CCc2ccc(OC)cc2)nnn1-c1nonc1N,-6%,-10,0.1,-0.1,-3,0.8,-6
Cc1cc(C)n(-c2nc3ccccc3c(=O)n2OCC(C)C)n1,3%,13,-2.2,-0.1,-6,-2.6,6
CC(=O)Nc1cccc(C(=O)N/N=C/c2ccccc2F)c1,-2%,5,2.1,0.4,3,1.0,1
Cc1cc2c(NC(=O)Nc3ccc(C(C)(C)C)cc3)cccc2nn1,26%,8,0.2,1.7,-34,-0.2,-3
Cn1c(-c2ccc(F)cc2)cnc1SCC(=O)NNC(=O)Cc1ccccc1,2%,3,-1.3,0.0,-10,2.2,-12
CCCCC(CC)C(=O)Nc1ccc(Nc2ccccc2)cc1 (centres undefined),13%,8,-1.2,-3.0,28,2.9,-54
CCOc1ccc2nc(NC(NC(C)=O)(C(=O)OC)C(F)(F)F)sc2c1 (centres undefined),0%,3,1.6,-2.3,-90,3.1,5
CS(=O)(=O)c1ccc(Cl)c(NC(=O)CSc2nc3ccccc3c(=O)n2CCCN2CCOCC2)c1,x,-22,-3.5,3.1,-17,-0.6,-1
COc1ccc(CNC(=O)CSc2nnc3c(Cl)cc(C(F)(F)F)cn23)cc1OC,17%,4,-0.6,2.0,-15,0.4,-2

# Next section; the last 2 above are carried over.
SMILES,Vif TR-FRET,Beta2AR agonist,LANA-H2B inh,HNF4A DNA FP,ALR inh,RanGTP-Imp inh,Calb FLC
CS(=O)(=O)c1ccc(Cl)c(NC(=O)CSc2nc3ccccc3c(=O)n2CCCN2CCOCC2)c1,x,-22,-3.5,3.1,-17,-0.6,-1
COc1ccc(CNC(=O)CSc2nnc3c(Cl)cc(C(F)(F)F)cn23)cc1OC,17%,4,-0.6,2.0,-15,0.4,-2
O=[N+]([O-])c1ccc2c(c1)C(N1CCOCC1)/C(=C/C1(O)CCCCC1)O2 (centres undefined),0%,3,1.7,0.3,37,2.4,-7
COc1ccc(-n2nnnc2-c2nc3ccccc3s2)cc1,-114%,-4,-4.6,-1.6,-10,2.9,-12
CC(=O)NCCC(=O)Nc1cc(S(=O)(=O)N2CCOCC2)ccc1Oc1ccc(F)cc1,0%,-5,-3.9,-1.2,0,-0.4,1
Cc1cc(N2CCN(C)CC2)nc2ccc(NC(=O)CCC(=O)NCCCOC(C)C)cc12,x,-7,-1.3,0.5,-21,1.1,6
COc1ccc(S(=O)(=O)NCCCCOc2ccc(Cl)cc2)cc1,6%,21,2.0,-5.0,-3,1.8,6
C=CCNC(=O)C(=O)NCCOc1ccccc1Cl,-5%,-7,-1.2,-2.0,-2,-0.3,-13
CN(C)c1ccc(P(=O)(OC2CCCCC2)C(O)c2ccccn2)cc1 (centres undefined),5%,0,-3.1,-4.5,0,1.0,-1
CCOC(=O)C1(C(F)(F)F)N=C(c2cccnc2)OC(N2CCCCC2)=N1 (centres undefined),u,0,4.7,1.6,-5,-0.4,-4
COc1cccc(C=Nc2ccc(N3CCOCC3)cc2)c1O,x,-7,3.2,-0.8,99*,-3.7,17
C/C(Nc1cccc(F)c1)=C(/C#N)C(N)=O,-10%,-9,1.3,0.8,2,3.0,-10
COc1ccc(CCSc2nnc(C3CCCCC3)n2N)cc1,16%,-3,3.5,1.9,96*,-0.2,-3
Cc1cccn2c(=O)c(C=O)c(Sc3ncccn3)nc12,7%,5,2.5,-1.3,x,4.7,43
CC1=C(C(=O)N2CCOCC2)C(c2c(C)cc(C)cc2C)NC(=S)N1 (centres undefined),3%,12,4.5,-3.0,1,-0.1,19
COc1ccccc1NS(=O)(=O)c1cc(NC(=O)c2sc3cc(Cl)ccc3c2Cl)ccc1C,x,-4,-3.4,-1.3,-9,x,-20
O=C(COC(=O)CCC(=O)c1ccccc1)NNC(=O)c1ccc(Cl)cc1,-1%,4,1.4,0.7,x,1.0,-4
Cc1cccc(N2CCN(C(=O)c3cc4ccccc4oc3=O)CC2)c1C,1%,-11,-5.5,-1.7,-13,5.0,-11
O=[N+]([O-])c1cccc(CSc2nc3ccccc3[nH]2)c1,x,-22,-2.6,-5.4,7,-3.9,1
COC(=O)CC1COc2ccccc2N1C(=O)c1ccc(C(C)(C)C)cc1 (centres undefined),u,7,0.3,0.4,-4,-3.7,-23
CCOC(=O)Cn1c(=O)oc2cc(S(=O)(=O)N3CCCC(C(=O)OCC)C3)ccc21 (centres undefined),1%,-6,-2.7,-1.4,9,1.4,1
COc1ccc(S(=O)(=O)N2CCOCC2)cc1NC(=O)CN1CCC(Cc2ccccc2)CC1,x,11,-5.2,2.3,-18,-1.0,-34
COc1cc(NS(=O)(=O)c2cn(C)cn2)cc(OC)c1OC,x,-3,-2.3,1.2,5,-0.6,5
CCCCN(C(=O)c1nn(C)c(=O)c2ccccc12)c1c(N)n(CC(C)C)c(=O)[nH]c1=O,x,-9,-2.8,4.0,-4,x,x
O=C(OCC(=O)c1ccc(Cl)s1)c1cnccn1,0%,3,-2.3,3.5,-5,u,-5
CC(C)(C)NC(=O)CSc1ccc(S(=O)(=O)N2CCOCC2)cn1,9%,8,-1.0,0.3,x,x,x
O=C(O)C1C2CCC(O2)C1C(=O)Nc1ccc(Br)cc1F (centres undefined),-3%,-3,-5.2,-6.0,x,7.0,0
COc1ccc(OC)c(NC(=O)COC(=O)c2nc(Cl)ccc2Cl)c1,-14%,2,-3.8,-3.0,-2,3.5,10
CC(=O)NCCC(=O)Nc1cc(F)ccc1C,3%,-2,-6.5,0.7,-2,-0.7,-3
O=C(c1ccc(C(F)(F)F)cc1)C1CCCN(C(=O)CCn2cncn2)C1 (centres undefined),x,3,-1.6,-3.3,-8,3.7,-4
Cc1ccccc1CN1C(=O)c2ccccc2Sc2ccc(C(=O)NCCN3CCOCC3)cc21,x,3,-4.8,4.3,-3,1.7,6
COC(=O)c1ccc(COn2nnc3ccccc32)cc1,x,0,0.6,-3.8,-4,0.9,-5
O=C1c2ccccc2S(=O)(=O)c2cc(N3CCN(C(=O)c4ccccc4)CC3)ccc21,x,x,0.3,x,-6,-58,22
CSCc1ccc(C(=O)NCc2ccc(F)cc2)cc1,-8%,-4,0.6,0.5,98*,3.2,-33
CCN(C(=O)CSc1nc2cc(S(=O)(=O)N(CC)CC)ccc2o1)C1CCS(=O)(=O)C1 (centres undefined),x,-5,-2.9,3.9,-66,-4.2,-4
CCN(C(=O)CCc1nnc2ccc(N3CCC4(CC3)OCCO4)nn12)c1ccccc1,x,-7,4.0,-4.0,-9,4.1,-1
O=C(c1cccs1)N1CCN(c2ncccn2)CC1,4%,-4,2.7,1.5,-4,-3.0,-6
Nc1ccc(S(=O)(=O)NCc2ccccn2)cc1,-4%,-8,-3.3,0.0,-5,0.0,-5
Fc1ccc(-c2cnc3n2CCCCC3)cc1,13%,8,-1.4,0.3,x,4.4,-9
Cc1ccc(NC(=O)CN(c2cc(C)cc(C)c2)S(=O)(=O)c2c(C)noc2C)nc1,2%,6,-1.8,2.4,-86,2.3,-1
C=CCNC(=O)c1cc(-c2ccc3c(c2)OCO3)on1,x,-7,-0.8,-5.0,5,1.0,-6
CCOc1ccc(-n2ccnc2)nn1,-3%,13,1.0,1.2,3,4.3,0
O=C(O)CNS(=O)(=O)c1c(Cl)cccc1Cl,-5%,1,1.8,-0.7,-5,0.1,-10
O=C(NNC(=O)C1CCCCC1)c1ccncc1,x,-2,0.1,-3.1,-2,1.5,7
Cc1ccc(S(=O)(=O)c2cc3ccccc3oc2=O)cc1,-32%,-30,1.1,2.6,2,u,u
CN(C)CCOC(=O)/C(=C/c1cn(C)c2ccccc12)NC(=O)c1ccccc1,-8%,2,-1.0,-2.0,43,-0.8,-4
O=C1OCC/C1=C\c1ccc2c(c1)OCO2,8%,1,-0.8,6.9,-5,-4.9,-1
COc1cccc2c1cc1c(=O)n(CC(=O)N3CCCCCC3)nc(C)n12,3%,-5,-3.1,1.7,0,-3.9,2
CCS(=O)(=O)c1ccc2c(c1)N(S(=O)(=O)c1ccc(Cl)cc1)CC(C(=O)O)O2 (centres undefined),-6%,14,-3.1,-3.8,-5,3.6,17
O=C(O)C1CC=CCC1C(=O)Nc1ccc(F)c(F)c1 (centres undefined),u,5,-0.1,3.8,-15,-0.9,-8
COc1ccc(-c2c(-c3ccc(OCC(=O)NN)cc3O)n[nH]c2C)cc1OC,-9%,5,2.3,-0.7,x,0.8,3
CCCN1C(=O)c2ccc(C(=O)NC3=NCCS3)cc2C1=O,-6%,-12,1.7,-3.2,-3,-0.7,2
Cc1c(C(=O)O)c(=O)n(-c2ccccc2)n1-c1ccccc1,16%,-4,5.4,1.4,0,-6.1,-4
CC(C)OP(=O)(OC(C)C)C1(O)C(=O)Nc2ccc(Br)cc21 (centres undefined),3%,1,-4.0,1.2,u,3.1,-4
COc1ccc(-c2nc(N)c(C#N)c(-c3cccnc3)c2C)cc1,-11%,7,0.4,2.6,x,1.1,-3
Cc1cc(S(=O)(=O)Nc2ccc(N3CCOCC3)cc2)ccc1Br,x,-9,4.7,2.1,75,0.6,0
CC1=NN(C(N)=S)C(=O)C1N=Nc1ccccc1O (centres undefined),16%,10,-0.4,3.5,18,2.8,-4
CCOc1ccc(C(C)NC(=O)Cc2ccccc2)cc1OCC (centres undefined),2%,12,6.1,-0.1,-2,3.1,-5
COc1ccc(N2CC(C(=O)Nc3ccccc3C(=O)NC3CC3)CC2=O)cc1 (centres undefined),x,-12,-1.2,1.2,-6,0.7,-2
Cc1ccc(Cl)cc1N1CCN(S(=O)(=O)c2c(C)[nH]c(C)c2C(=O)N2CCCC2)CC1,x,0,4.0,-4.2,9,2.8,-5
